D2 PAM: potentiates the human D2 dopamine receptor allosterically | P14416 | DiscoveRx D2 beta-arrestin cells, luminescence, 90 min; 100% = 57 uM dopamine signal | potentiation, % (concentration not given with the values) | 0.23% of 360,000 active; active = potentiation of 50% or more; inconclusive = 30% to 50%; inactive = 30% or less;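 further: compound concentration not given in the record; tested on top of an EC20 dose of dopamine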
Target sequence (P14416 whole entry, looked up): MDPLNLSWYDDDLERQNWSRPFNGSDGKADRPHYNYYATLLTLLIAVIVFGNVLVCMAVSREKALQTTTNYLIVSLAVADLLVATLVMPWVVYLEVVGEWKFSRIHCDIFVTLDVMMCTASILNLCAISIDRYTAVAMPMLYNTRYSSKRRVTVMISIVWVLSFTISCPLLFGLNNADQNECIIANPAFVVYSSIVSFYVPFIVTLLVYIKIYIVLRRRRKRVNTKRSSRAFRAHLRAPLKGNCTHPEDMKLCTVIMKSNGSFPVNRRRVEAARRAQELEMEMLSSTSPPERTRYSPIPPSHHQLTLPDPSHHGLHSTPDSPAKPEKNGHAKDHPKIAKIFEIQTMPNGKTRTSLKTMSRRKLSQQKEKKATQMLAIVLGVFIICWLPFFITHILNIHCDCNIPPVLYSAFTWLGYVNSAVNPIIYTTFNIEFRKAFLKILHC
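D2 cells co-treated with compound plus 50 nM dopamine (EC20) for 90 min at 37 deg C to detect potentiation. Beta-arrestin recruitment was read as enzyme-fragment luminescence after 1 h at ambient temperature. Full response was set by 57 uM dopamine.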
Sfp inh: Sfp phosphopantetheinyl transferase inhibition; Biochemical Sfp PPTase activity, qHTS; AID 1490; 3.5% of 310,000 active; Q9F4F7; Potency, µM, inactives show max response, negative = inhibition, most hits filed as inhibitors; active means well fitted inhibition curve with a large enough effect; inconclusive means small, poorly fitted or top-dose-only effect, or another doubt; inactive means no such curve, though single readings can be large or run the other way;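 further: the enzyme is Sfp with the accession as filed and its product quenches rhodamine fluorescence; potency means the concentration at half of the fitted maximal effect; 0% = enzyme reaction without inhibitor and -100% = no enzyme wells; top concentration of the series not given in the record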
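Compounds were incubated with enzyme (final 15 nM) for 15 min at room temperature before substrate addition started the reaction. Fluorescence at 525 nm excitation, 598 nm emission was recorded immediately and after 30 minutes.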
TRPV1 PAM: enhances activation of the human vanilloid receptor TRPV1. Q8NER1. TRPV1-expressing cells, Fluo-8 calcium influx, capsaicin EC20 potentiation; host cell line not named in the record; control for the full effect not named in the record. potentiation, % at 8.33 µM. 0.02% of 320,000 active. AID 540277; active means potentiation above 80%; inconclusive means 30% to 80%; inactive means below 30%; further: 0% is about no effect
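Fluo-8 calcium influx in TRPV1-expressing cells, kinetic read (ex 480/em 520 nm). Compound added and read 3 min for agonist activity, followed by capsaicin at EC20 final and 2 min further read for enhancement.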
Six1-Eya2 inh: Six1/Eya2 interaction inhibition | 0.56% of 360,000 active | Q15475+O00167 | AlphaScreen GST-Six1/His-Eya2 binding, biochemical; stronger effect = lower value; control for the full effect not named in the record | AID 651725 | activity change, % (no concentration beside the values); in the data active = activity change below about -65%; inconclusive = about -30% to -65%; inactive = above about -30%; further: on the % scale 0 is the no-effect control and ±100 the full control effect; compound concentration not given in the record
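Compounds are tested against tagged Six1 and Eya2 proteins bridged by glutathione donor and nickel acceptor beads; after a one-hour incubation at 37 °C without light, AlphaScreen emission is recorded.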
PINK1 modulator: modulators of PINK1 expression. PINK1 immunofluorescence, high-content cytometry, 24 h. Potency, µM (top dose mostly 76.6 µM), for the others: top-dose activation (PINK1 increase), most hits filed as activators. 0.2% of 410,000 active. AID 624263; active = well fitted activation curve with a large enough effect; inconclusive = small, poorly fitted or top-dose-only effect; inactive = flat fitted curve, though single readings scatter; cell line not stated here;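 further: potency means the concentration at half of the fitted maximal effect; % of control where 0% means no effect; nearly all actives have a fitted effect of over 65% in size; a mitochondrial uncoupler was the plate control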
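Stable cell line treated 24 h with compounds at 5 concentrations (CCCP controls), then fixed and immunostained for PINK1 plus nuclear and cell stains; PINK1 immunofluorescence quantified by laser-scanning microplate cytometry.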
CtBP-E1A inh: inhibitors of CtBP/E1A interaction; AlphaScreen GST-E1A/His-CtBP binding, 1536-well; stronger effect = lower value; control for the full effect not named in the record; activity change, % (test concentration not listed); 0.49% of 340,000 active; in the data active means activity change below about -65%; inconclusive means about -30% to -65%; inactive means above about -30%; further: on the % scale 0 is the no-effect control and ±100 the full control effect; compound concentration not given in the record
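GST-E1A and His-tagged CtBP (125 nM each as 5X stock) were preincubated with pin-transferred compound for 2 h at 37 °C in the dark, then glutathione donor and nickel acceptor beads were added for 1 h before AlphaScreen reading.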
D2 ag: human D2 receptor agonism in beta-arrestin assay | P14416 | DiscoveRx PathHunter D2 beta-arrestin, luminescence, 90 min; 100% = 57 uM dopamine signal | activation, % (no concentration beside the values) | 0.084% of 360,000 active | AID 624465; in the data active = activation above about 40%; inconclusive = about 15% to 40%; inactive = below about 15%; further: compound concentration not given in the record; the text of the record calls up to 30% inactive
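Agonist mode: compounds alone added to overnight-plated D2 PathHunter cells for 90 min at 37 C, with 57 uM final dopamine (EC100) defining full response. Beta-arrestin recruitment detected by chemiluminescent reagent, read after 1 h at ambient temperature.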
Active calls of the source: *; ? = inconclusive; · = not tested or not shown; [ ] = remark or other dose. Outcome played no part in choosing rows; any-hit rate near 3.7%.

SMILES | D2 PAM | Sfp inh | TRPV1 PAM | Six1-Eya2 inh | PINK1 modulator | CtBP-E1A inh | D2 ag
COc1ccccc1Nc1nc(N)nc(CN2CCN(Cc3ccccc3)CC2)n1 | -1 | -14% | 19 | -18 | 22%[38.3 µM] | -7 | -2.6
CCn1cc(C(=O)N(CCC(C)C)c2c(N)n(Cc3ccccc3)c(=O)[nH]c2=O)c(=O)c2ccc(C)nc21 | -2 | 8% | -3 | 1 | 1.3% | 0 | -0.6
COc1ccc(C2(c3ccc(OC)cc3)NC(=O)N(CC(=O)Nc3cc(C)on3)C2=O)cc1 | -3 | · | · | 2 | 2.0% | -3 | 3.2
N/C(Cc1ccc([N+](=O)[O-])cc1)=N\OC(=O)CC1CCCCC1 | ? | 15% | -12 | -4 | 1.8% | 0 | 12
CC(C)(C)c1ccc(S(=O)(=O)N2CCC(CO)(CC3CCCCO3)CC2)cc1 (stereo not given) | -7 | 7% | -9 | -1 | 2.5% | 2 | 0.0
Cc1ccc(S(=O)(=O)N2CCN(CC(=O)Nc3ccc(N4CCOCC4)cc3)CC2)cc1C | -4 | 8% | 2 | -10 | 0.4% | -1 | -0.5
COc1ccc(N2C(=O)C3CCCN3C2=S)cc1 (stereo not given) | -4 | 0% | 18 | -2 | 1.9% | 5 | -0.2
CCCn1c(N)c(N(CCOC)C(=O)c2ccc(N(C)S(=O)(=O)c3ccc(C)cc3)cc2)c(=O)[nH]c1=O | 5 | · | 24 | 8 | 3.3% | -5 | -2.7
O=C(Nc1ccc(S(=O)(=O)N2CCCC2)cc1)C1CC(=O)N(CCc2ccc(F)cc2)C1 (stereo not given) | -9 | · | -2 | 1 | -2.1% | -1 | 0.1
O=C(CSc1ccc2nnc(-c3cccnc3)n2n1)Nc1ccccc1 | -1 | -6% | 5 | ? | 1.3% | ? | -2.3
CC(C)NC(=O)CSc1nc(N)c(NC(=O)c2ccccc2F)c(=O)[nH]1 | 10 | -1% | 5 | -2 | 3.2% | -19 | 0.3
CCN1CCN(c2cc(C)c3cc(NC(=S)NCc4cccs4)ccc3n2)CC1 | -21 | 7% | -8 | -6 | 2.8% | · | -9.1
Cc1ccc(N(CC(=O)NC(C)C)C(=O)CCC(=O)Nc2nccs2)cc1 | -6 | 27% | 11 | 1 | 1.6% | 0 | -6.1
CCOc1ccc(N(C)S(=O)(=O)c2cc(-c3cc(C)no3)ccc2C(C)C)cc1 | -11 | -3% | -8 | -2 | 1.5% | 4 | -2.5
O=C(Nc1ccc2c3c(cccc13)CC2)c1ccccc1 | -5 | · | · | -3 | 2.1% | 4 | -1.8
CCN(CC)c1ccc(CN(C(=O)c2cccs2)C2CCS(=O)(=O)C2)cc1 (stereo not given) | -14 | -1% | -5 | -15 | 0.4% | -19 | -4.6
Cc1ccc(NC(=O)CSc2nnc(C)c(=O)[nH]2)cc1C | 0 | -6% | -17 | 0 | 3.2% | 2 | -3.1
Cn1c(O)c(C2=c3ccccc3=NC2=O)sc1=Nc1ccc(Cl)cc1 | -11 | -18% | 24 | -5 | 0.9% | -1 | -3.5
Cc1cc(CNC(=O)c2cccc([N+](=O)[O-])c2C)c2ccccc2n1 | -8 | 17% | -16 | -4 | 1.0% | 4 | -1.1
CC1CCCCC1NC(=O)COc1ncnc2sccc12 (stereo not given) | -3 | · | 1 | 8 | -0.8% | 0 | -5.7
COc1ccc2c(c1)CC/C(=C\c1ccc(C)o1)C2=O | 6 | 45µM* | -4 | -14 | 1.1% | -2 | 2.0
CCOc1ccc(NC(=O)CN2C(=O)S/C(=C/c3cccn3C)C2=O)cc1 | -3 | -11% | 5 | 8 | -2.3% | 2 | 9.5
Cc1c(NC(=O)C2Cc3ccccc3CN2C(=O)c2ccco2)c(=O)n(-c2ccccc2)n1C (stereo not given) | -5 | 3% | 8 | -1 | -2.4% | 5 | -3.4
CC(C)N1CCc2c(sc(NC(=O)c3ccco3)c2C(N)=O)C1 | -19 | -13% | -1 | -5 | 4.1% | -24 | -3.6
Cc1ccc(CN(C(=O)COc2ccc([N+](=O)[O-])cc2)C2CCS(=O)(=O)C2)o1 (stereo not given) | -7 | -2% | 16 | -1 | -0.9% | -1 | -1.5
O=C(Nc1ncc2c(n1)-c1ccccc1OC2)c1ccc(F)cc1 | 3 | 15% | -25 | -3 | 0.0% | -5 | -6.3
Cc1ccc(O)c(CNc2ccccn2)c1 | -3 | 6% | -12 | 0 | 1.2% | 0 | 1.3
COc1ccc(N/C=C/C(=O)c2ccccc2)cc1 | -23 | -2% | -2 | 7 | 2.3% | · | -7.7
Nc1ccc(-c2nnc(-c3ccccc3)o2)cc1 | -1 | 3% | -3 | 2 | 0.5% | 1 | 0.9
COC(=O)c1cc(S(=O)(=O)Nc2nn(C)c3ccccc23)oc1C | -5 | 7% | 18 | 6 | 1.4% | 6 | -9.0

5 structures from above, arranged by formula weight, high to low:
SMILES | D2 PAM | Sfp inh | TRPV1 PAM | Six1-Eya2 inh | PINK1 modulator | CtBP-E1A inh | D2 ag
Cc1c(NC(=O)C2Cc3ccccc3CN2C(=O)c2ccco2)c(=O)n(-c2ccccc2)n1C (stereo not given) | -5 | 3% | 8 | -1 | -2.4% | 5 | -3.4
COC(=O)c1cc(S(=O)(=O)Nc2nn(C)c3ccccc23)oc1C | -5 | 7% | 18 | 6 | 1.4% | 6 | -9.0
O=C(Nc1ncc2c(n1)-c1ccccc1OC2)c1ccc(F)cc1 | 3 | 15% | -25 | -3 | 0.0% | -5 | -6.3
COc1ccc2c(c1)CC/C(=C\c1ccc(C)o1)C2=O | 6 | 45µM* | -4 | -14 | 1.1% | -2 | 2.0
Nc1ccc(-c2nnc(-c3ccccc3)o2)cc1 | -1 | 3% | -3 | 2 | 0.5% | 1 | 0.9

(next part)
SMILES | D2 PAM | Sfp inh | TRPV1 PAM | Six1-Eya2 inh | PINK1 modulator | CtBP-E1A inh | D2 ag
CC(=O)NC12CC3CC(C1)CC(C(=O)N(C)CC(=O)Nc1cccc(F)c1)(C3)C2 | -3 | · | -8 | 4 | 0.5% | 8 | -2.2
CN(Cc1ccccc1)C(=O)CCCn1c(=O)[nH]c2cc(Cl)ccc2c1=O | 8 | 7% | 2 | 8 | -2.1% | -9 | -9.5
Cc1ccc(OCc2cn3cccnc3n2)cc1 | -16 | 12% | -22 | 4 | 1.0% | -1 | -0.7
CCC1(c2ccc(Cl)cc2)NC(=O)N(CC(=O)N2CCN(C(=O)c3ccco3)CC2)C1=O (stereo not given) | -11 | · | · | 6 | -0.3% | -1 | -3.8
CCC1S/C(=N\S(=O)(=O)c2cccs2)N(C2CCCCC2)C1=O (stereo not given) | -4 | -5% | -2 | 7 | 0.1% | 5 | -0.6
CN1CCN(c2ccc(CNC(=O)C3Cc4c(-c5ccc6c(c5)OCO6)ccnc4O3)cc2)CC1 (stereo not given) | -14 | · | · | -19 | 2.3% | -8 | 7.3
CC(C)c1nnc(NC(=O)CSc2ccccc2)s1 | -4 | 2% | 16 | 0 | 0.5% | -1 | -2.3
Cc1cc(OC(=O)c2cccc(Br)c2)c([N+](=O)[O-])c(=O)[nH]1 | -6 | 5% | 20 | 11 | -0.2% | -18 | -2.0
CCCCCC1CCC(c2n[nH]c(=S)n2C)CC1 (stereo not given) | -13 | -19% | -6 | -4 | 1.1% | 0 | -10
Cc1ccc(Sc2ncccc2C(=O)O)cc1 | 4 | -7% | -6 | 7 | -0.7% | 8 | -1.1
COc1ccc(-c2coc3c(C(=O)NC4CCCCC4)cccc23)c(C)c1 | -14 | · | · | -1 | 16% | 3 | 1.3
O=C(Oc1ccc(Br)cc1)c1cccnc1 | -9 | 10% | 21 | ? | 1.1% | 5 | -2.6
CC(=O)c1cccc(NC(=O)CN(C2CCCCC2)S(C)(=O)=O)c1 | -2 | 13% | · | -12 | 2.2% | -7 | -3.3
Cc1cc(C)nc(SCc2nnc(SCC(=O)Nc3ccc(Cl)c(C(F)(F)F)c3)o2)n1 | -11 | 12% | 10 | 3 | -1.2%[38.3 µM] | 4 | 0.5
COc1ccc(C(C(=O)NC(C)(C)C)N(C[C@H]2CC[C@@H]([C@@H]3CC[C@H](CO)O3)O2)C(=O)c2ccccc2)cc1 (stereo not given in full) | · | · | · | 10 | 0.3% | 2 | -0.6

Whole records, looked up by structure.
Record of Cn1c(O)c(C2=c3ccccc3=NC2=O)sc1=Nc1ccc(Cl)cc1 = D2 PAM: -11; Sfp inh: -18%; TRPV1 PAM: 24; Six1-Eya2 inh: -5; PINK1 modulator: 0.9%; CtBP-E1A inh: -1; D2 ag: -3.5
Record of CCN1CCN(c2cc(C)c3cc(NC(=S)NCc4cccs4)ccc3n2)CC1 = D2 PAM: -21; Sfp inh: 7%; TRPV1 PAM: -8; Six1-Eya2 inh: -6; PINK1 modulator: 2.8%; CtBP-E1A inh: ·; D2 ag: -9.1
Record of CN(Cc1ccccc1)C(=O)CCCn1c(=O)[nH]c2cc(Cl)ccc2c1=O = D2 PAM: 8; Sfp inh: 7%; TRPV1 PAM: 2; Six1-Eya2 inh: 8; PINK1 modulator: -2.1%; CtBP-E1A inh: -9; D2 ag: -9.5

The results go on:
SMILES | D2 PAM | Sfp inh | TRPV1 PAM | Six1-Eya2 inh | PINK1 modulator | CtBP-E1A inh | D2 ag
CCCCC(=O)Nc1ccc2c(c1)nc1n2CCOC1 | -5 | 10% | 3 | 20 | 0.6% | 2 | -1.9
O=C(Nc1ccc(Cl)cc1)N(CCCN1CCOCC1)Cc1cccs1 | -13 | -10% | -1 | 4 | -0.6% | 2 | -2.7
CC(Nc1ccc(F)cc1)=[N+](C)CCNS(=O)(=O)c1ccc(Cl)cc1 | -41 | -25% | 7 | -10 | -1.2% | 0 | -7.4
CCOC(=O)C1CCN(CC(=O)N(CC(C)C)c2c(N)n(CC(C)C)c(=O)[nH]c2=O)CC1 | -4 | 7% | -4 | 24 | 1.6% | 0 | -2.0
C[C@@H]1CN([C@@H](C)CO)C(=O)CCCn2nncc2CO[C@H]1CN(C)C(=O)c1ccc(N2CCN(C)CC2)cc1 | -1 | · | · | 4 | 0.4% | -16 | -0.2
NS(=O)(=O)c1ccc(NS(=O)(=O)/C=C/c2ccccc2)cc1 | -4 | 20% | 2 | 3 | -0.1%[38.3 µM] | 7 | -2.2
O=C(O)C1CCCN1c1ncccn1 (stereo not given) | 0 | 22% | 6 | 0 | 0.3% | 19 | -1.8
COc1ccc(S(=O)(=O)Nc2cccc(C)c2C)c2cccnc12 | 13 | 14% | 14 | -12 | 3.8% | -18 | 1.4
O=C(NCCc1ccccc1)c1ccccc1C(F)(F)F | -6 | · | · | -1 | 0.2% | 5 | -2.2

High-throughput results: PubChem, National Center for Advancing Translational Sciences (NCATS)
